Ecoli rRNA inh = reduced GFP signal of wild-type E. coli, primary screen, bacterial rRNA inhibitor project, GFP/RFP fluorescence, OD600, single point; GFP signal change (wild-type ribosome), % (no concentration beside the values); E. coli WT GFP vs humanized-ribosome RFP mutants, 24 h; stronger effect = lower value; DMSO median 0, no signal -100; actives 1.6% (n = 350,000);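 active = significant combined selectivity score with lowered wild-type GFP, culture density cut under 30%, mutant RFP and density less affected; inactive = any of these conditions unmet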; also: one replicate is shown; some compounds called inactive have numbers as strong as hits
LANA-H2A inh = blockers of LANA interaction with H2A/H2B – biochemical, FP readout, HTS, primary screen; inhibition, % (concentration not given with the values); actives 0.6% (n = 320,000); AID 2629, 2010; cell-free LANA-H2A/H2B peptide, fluorescence polarization; Protein LANA1 (Human herpesvirus 8 type P (isolate GK18)), Q9QR71; in the data active = inhibition mostly above about 10%, no sharp cut-off; inactive = mostly below about 6.7%;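 also: stock transfer was 7.5 nL into about 10 µL; 0% = median of vehicle wells and 100% = median of positive control wells; one replicate is shown; the record names a cut of 25% in any replicate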
Target sequence (Q9QR71 whole entry, looked up): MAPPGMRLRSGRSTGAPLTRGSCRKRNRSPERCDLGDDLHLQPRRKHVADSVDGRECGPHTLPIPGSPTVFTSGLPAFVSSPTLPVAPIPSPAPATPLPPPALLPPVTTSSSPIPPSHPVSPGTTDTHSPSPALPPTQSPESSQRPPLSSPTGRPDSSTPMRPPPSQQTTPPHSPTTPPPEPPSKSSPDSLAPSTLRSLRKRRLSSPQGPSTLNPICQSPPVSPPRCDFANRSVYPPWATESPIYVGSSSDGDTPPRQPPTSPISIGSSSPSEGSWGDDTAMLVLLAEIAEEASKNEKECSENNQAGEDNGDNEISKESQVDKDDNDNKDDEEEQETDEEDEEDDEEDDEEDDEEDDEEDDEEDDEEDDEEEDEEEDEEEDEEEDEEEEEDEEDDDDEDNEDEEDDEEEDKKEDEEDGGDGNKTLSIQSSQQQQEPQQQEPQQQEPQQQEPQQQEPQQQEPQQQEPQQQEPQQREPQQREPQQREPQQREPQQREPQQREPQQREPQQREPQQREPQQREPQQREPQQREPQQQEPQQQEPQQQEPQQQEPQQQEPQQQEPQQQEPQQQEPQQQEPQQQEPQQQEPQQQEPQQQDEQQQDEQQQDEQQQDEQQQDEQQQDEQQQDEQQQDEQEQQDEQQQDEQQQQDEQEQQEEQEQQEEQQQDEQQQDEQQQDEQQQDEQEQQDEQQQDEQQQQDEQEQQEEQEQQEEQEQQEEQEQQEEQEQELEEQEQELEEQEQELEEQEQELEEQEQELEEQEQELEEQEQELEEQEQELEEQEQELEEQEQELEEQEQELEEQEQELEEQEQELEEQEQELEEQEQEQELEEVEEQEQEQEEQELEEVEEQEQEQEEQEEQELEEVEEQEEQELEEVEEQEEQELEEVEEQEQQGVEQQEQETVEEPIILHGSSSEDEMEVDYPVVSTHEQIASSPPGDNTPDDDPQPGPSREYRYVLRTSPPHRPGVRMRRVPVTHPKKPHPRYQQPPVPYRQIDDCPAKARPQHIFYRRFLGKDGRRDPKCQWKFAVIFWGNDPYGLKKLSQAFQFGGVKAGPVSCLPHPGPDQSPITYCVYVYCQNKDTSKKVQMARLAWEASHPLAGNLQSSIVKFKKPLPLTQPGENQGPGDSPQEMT
ALR inh = inhibitors of human ALR sulfhydryl oxidase, primary screen, biochemical, H2O2 detection, HRP-luminol luminescence, single point | FAD-linked sulfhydryl oxidase ALR (Homo sapiens), P55789 | purified ALR, DTT oxidation | inhibition, % (no concentration beside the values) | actives 3.8% (n = 290,000) | AID 485317, 2010;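 active = mean and each replicate at 75% or more; inconclusive = only one of the two met; inactive = neither met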;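 also: stock transfer was 7.5 nL into about 7.5 µL; 0% = neutral wells and 100% = wells with inactivated enzyme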
B2AR ag = beta2AR agonists driving receptor internalization, primary screen, cell-based, FAP fluorogen, flow cytometry | Beta-2 adrenergic receptor (Homo sapiens), P07550 | Am2.2-beta2AR cells; reference of the scale not given here | response, % (no concentration beside the values) | actives 0.43% (n = 340,000);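 active = response above a set limit, near 3 SD of response in nonfluorescent compounds, cut at about 42% in these data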;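 also: stock transfer was 100 nL into about 11 µL; a reference agonist was the positive control; negative values mostly stem from fluorescent compounds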
Calb FLC = C. albicans growth inhibition with fluconazole, primary screen, CaCi-2 strain, Alamar Blue fluorescence; C. albicans CaCi-2 (fluconazole-resistant clinical isolate) + fluconazole, 48 h; growth inhibition, % (no concentration beside the values); actives 0.57% (n = 300,000);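 active = most replicates above 75%; inconclusive = exactly half above 75%; inactive = most below 75%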;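 also: all wells also contain fluconazole at 8 µg/ml as a sub-toxic cotreatment; 0% = median of DMSO wells and 100% = median of geldanamycin control wells; wells of about 8 µL received 7.5 nL stock; the first replicate is given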
T cruzi inh = inhibitors of intracellular T. cruzi growth, primary screen, luminescence, NIH3T3 host cells | T. cruzi beta-gal in NIH3T3, 90 h | inhibition, % (no concentration beside the values) | actives 1.4% (n = 300,000);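 active = mean inhibition across valid replicates above about 55%, limit read from the data; inconclusive = mean below that limit but half or more replicates reach it; inactive = mean below it, under half of replicates reach it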;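 also: signal also drops with host cell toxicity which is not excluded here; 0% = plate median of DMSO wells and 100% = zero luminescence signal; higher percent means less beta-gal luminescence so fewer parasites; stock transfer was 50 nL into about 50 µL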
Beta apoptosis = inhibitors of cytokine-induced beta cell apoptosis, primary screen, luminescence; INS-1E cytokine-induced death, ATP luminescence, 48 h; percent of positive-control rescue, neutral wells zero; protection from apoptosis, % (concentration not given with the values); actives 0.8% (n = 300,000);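 active = all replicates at 75% or more, or half of them and the mean; inconclusive = half reach 75% but not the mean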;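 also: 0% = cytokine-treated negative control wells and 100% = positive control rescue; higher means more ATP so stronger rescue from cytokine killing; wells of about 40 µL received 100 nL stock; the first replicate is given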
Bfl-1 A1 inh = caspase 3/7 activation in MEF A1-2A-BIM cells, primary screen, A1 inhibitor project, cell-based, luminescence, HTS | caspase activation, % (no concentration beside the values) | Caspase-Glo 3/7 luminescence, 3 h; percent of clofoctol response, vehicle zero | actives 0.066% (n = 330,000);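 active = over half of replicate activation scores above 10%, or exactly half above 10 with the replicate mean above 10; inconclusive = replicate mean below 10 yet half the replicates above 10; inactive = over half of replicates below 10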;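 also: wells of about 30 µL received 50 nL stock; many hits fall short of the cut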
Ecoli rRNA inh OD600 = further read-out of Ecoli rRNA inh, marked with its call; OD600 change, %; measured here: OD600 growth;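 optical density of the mix in the first replicate; 0 = DMSO median and -100 = no signal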
Ecoli rRNA inh RFP = further read-out of Ecoli rRNA inh, marked with its call; RFP signal change, %; measured here: RFP humanized mutant strains;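 first replicate; 0 = DMSO median and -100 = no signal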
The depositor's hits bear a star; ? = inconclusive; · = no result given. Not all compounds are listed (hit frequency here may not be typical).

SMILES	Ecoli rRNA inh	Ecoli rRNA inh OD600	Ecoli rRNA inh RFP	LANA-H2A inh	ALR inh	B2AR ag	Calb FLC	T cruzi inh	Beta apoptosis	Bfl-1 A1 inh
O=C(c1cc2sccc2n1Cc1ccccc1)N1CCN(c2nc3ccccc3s2)CC1	14	4	-5.3	-1.3	-7	5	1	44	99*	0.3
Cc1nc(C(=O)N2CCc3c([nH]c4ccccc34)C2c2cc(F)ccc2F)cs1 (configuration not stated)	-13	-24	-3.5	16*	-2	-5	-1	12	3	0.0
COc1ccc(CNC(=O)CCc2c(C)nc3cc(-c4ccccc4OC)nn3c2C)cc1	-10	-8	20	0.7	1	-13	7	41	-1	-0.2
O=C(NCCc1ccc(Cl)cc1)C1CCN(S(=O)(=O)N2CCC3(CC2)OCCO3)CC1	·	·	·	-1.7	-2	4	-6	-3	-5	-0.3
CCOC(=O)c1oc2cc(OCC(N)=O)ccc2c(=O)c1-c1ccc(OC)c(OC)c1	·	·	·	-18	-2	-1	3	-3	-1	-0.2
C=CCNC(=S)NNC(=O)c1ccccc1	·	·	·	0.1	25	-2	13	-3	0	-0.4
CCOC(=O)c1c(NC(=O)Cn2ccsc2=N)sc(C)c1C	4	7	2.6	-4.3	8	0	-7	18	-4	0.3
CCOC(=O)N1CCN(C(=O)c2ccc(CN(c3ccc(C)c(C)c3)S(C)(=O)=O)cc2)CC1	·	·	·	7.3	-1	2	-1	8	3	1.0
Cc1cccc(NC(=O)CSc2nnc([C@@H]3CCCN3C(=O)OC(C)(C)C)o2)c1C	·	·	·	-0.1	3	-7	-1	·	-5	-0.3
COc1ccc(CN2CCCC(C(=O)N3CCCCC3)C2)c(OC)c1 (configuration not stated)	·	·	·	10	-15	-3	-13	21	·	0.1
Cc1ccccc1-c1nnc(SCC(=O)N(C)C2CCS(=O)(=O)C2)n1C (configuration not stated)	22	8	1.9	-7.7	·	7	·	·	0	-0.6
C=Cn1c(C(=O)O)cc(CC)c1-c1ccccc1	·	·	·	-0.1	2	3	39	-12	-9	-0.1
COc1ccc(CC(=O)Nc2ccc(S(=O)(=O)Nc3ncccn3)cc2)cc1	·	·	·	-1.3	·	-6	-13	5	-5	-0.1
O=C(c1ccc([N+](=O)[O-])s1)N1CCCc2ccccc21	-13	-9	5.1	1.8	·	10	6	32	14	0.6
O=C1CCN(C(=O)c2cccs2)c2ccccc21	-9	-19	-1.8	-0.4	·	-1	4	-10	-7	-1.6
O=C1C=C(c2ccc3c(c2)OCO3)CCC1	·	·	·	-0.8	·	-3	0	-9	-6	-1.5
COC(=O)c1ccc(NC(=O)CSc2ccc(-c3ccccn3)nn2)cc1	17	15	-0.2	0.1	-5	1	·	3	-17	0.5
CCn1nnnc1SCC(=O)Nc1ccc2c(c1)OCCO2	·	·	·	2.3	-4	-2	4	-6	-2	-1.3
O=C(OCCN1C(=O)c2ccccc2C1=O)c1cnccn1	·	·	·	4.5	-16	7	-9	-8	-1	1.6
Cc1ccccc1NC(=O)CCS(=O)(=O)c1cccc2nonc12	7	10	3.9	-6.1	·	0	-29	9	-2	0.8
O=C(Nc1nc2ccccc2[nH]1)C1CCN(C(=O)c2ccc(F)cc2)CC1	16	6	1.9	0.1	-7	-5	-3	-2	1	0.2
O=C(CN1CCCc2ccccc21)Nc1ccc(F)cc1[N+](=O)[O-]	27	16	3.2	2.3	-9	10	8	2	1	?
Cc1cc(C)cc(NC(=S)N2CCN(c3ncccn3)CC2)c1	5	4	-0.8	21*	-4	-2	16	9	-10	0.0
CC(C)c1ccccc1NC(=S)NCCCn1ccnc1	4	4	1.0	0.2	87*	-4	-1	3	·	0.4
Nc1ccc(C(=O)OCC(=O)NC2CC2)cc1[N+](=O)[O-]	0	3	-5.7	3.8	-15	-14	-7	-3	-5	0.2
C/C(=N\NC(=O)c1cc(C2CC2)nc2ccccc12)c1ccc(C)s1	·	·	·	-0.6	-2	2	3	-8	-3	0.4
O=C(COC(=O)Cn1cnc2ccccc2c1=O)NCC12CC3CC(CC(C3)C1)C2	·	·	·	1.5	-2	-1	-8	-20	1	0.2
CCOC(=O)c1sc2nc(C)n(N)c(=O)c2c1C	4	-5	-0.3	5.6	-8	2	18	-8	·	-0.2
Cc1cccc(-c2nnc(SCCC(=O)N3CCOCC3)o2)c1	·	·	·	-3.3	-2	4	6	-18	-3	-1.1
CC(=O)N(C)c1nnc(-c2cnccn2)s1	·	·	·	3.5	-14	-10	-4	3	-4	0.2
CSc1nc2ccccc2n1CC(=O)N1CCCCC1	·	·	·	4.6	-1	2	-13	-4	-2	0.3
COC(=O)C1=C(C)N(c2ccc(S(N)(=O)=O)cc2)C(=O)C1	·	·	·	-3.9	4	-6	-4	-11	-3	0.8
CN1C2CCC1CC(NC(=O)c1cc(S(=O)(=O)N(C)C)c(Cl)cc1Cl)C2 (configuration not stated)	8	12	-0.5	-1.1	3	4	·	·	0	0.2
Cc1cccc(N2CCN(C(=O)C3COc4ccccc4O3)CC2)c1C (configuration not stated)	-32	-43	3.2	-4.3	-15	1	-2	8	-5	0.7
Cc1ccnc(N2CCCC(C(=O)NCc3cccs3)C2)n1 (configuration not stated)	·	·	·	0.2	·	2	-4	-5	-2	0.0
CC(=O)NC(CC(=O)NNC(=O)COc1c(C)cccc1C)c1ccccc1 (configuration not stated)	1	1	-1.4	5.0	-4	-2	·	·	-8	1.3
O=C(COC(=O)c1ccc(F)c(S(=O)(=O)N2CCCCC2)c1)NCc1ccc(F)cc1	·	·	·	-1.8	-16	-6	17	-7	1	-0.1
COc1ccc(-c2nnn(Cc3ccccc3F)n2)cc1	·	·	·	2.1	4	-2	0	-14	5	-1.6
CCc1c(C)nc(SCC(=O)Nc2ccc3c(c2)OCCO3)[nH]c1=O	7	5	1.3	4.1	99*	5	26	6	-7	0.0
Cc1ccc(NC(=O)C2=CC(c3cccs3)=NS(=O)(=O)N2C)cc1	-2	12	-1.8	-7.1	-8	5	-4	6	-1	·
CCC1CCCCN1S(=O)(=O)c1ccc(C(=O)Nc2nnc(-c3cccs3)o2)cc1 (configuration not stated)	·	·	·	1.5	98*	4	·	·	27	1.1
O=C(Oc1ccc2ccc(O)cc2c1)C1CCCCC1	-40	-35	8.1	-1.8	-5	2	3	3	-10	0.0
CCOc1ccc(OCc2cccc(C(=O)N3CCOCC3)c2)cc1	·	·	·	7.2	-5	4	0	-13	1	-2.1
CSc1cccc(CN2CCN(Cc3ccc(F)c(F)c3)C(CCO)C2)c1 (configuration not stated)	-18	-21	-0.7	-1.0	7	1	0	21	·	-0.8
CCc1nn(CCCC(=O)Nc2ccc(C)c(C)c2)c(=O)c2cc3occc3n12	3	5	9.8	2.3	2	3	21	7	-11	-1.0
CCN(CC)S(=O)(=O)c1ccc(C(=O)N2CCN(CCN3C(=O)c4cccc5cccc(c45)C3=O)CC2)cc1	·	·	·	-3.0	-5	·	12	-3	1	-0.4
COc1ccc(S(=O)(=O)N2CCC(C(=O)NCCc3ccccc3)CC2)cc1OC	·	·	·	-1.9	2	2	-10	5	-1	-1.1
COC(=O)C(NS(=O)(=O)c1ccc(F)cc1)c1ccccc1 (configuration not stated)	7	7	2.2	-2.5	·	12	13	-15	-5	0.3
Cn1c2c(c(=O)n(C)c1=O)C(c1ccccc1F)C(C#N)=C(N)O2 (configuration not stated)	15	11	-0.4	-1.6	-1	6	-7	4	·	0.8
Cc1cccc(N2CCN(Cc3nc(-c4ccc(F)cc4F)oc3C)CC2)n1	-34*	-7.3*	-2.2*	2.9	-1	3	-17	7	0	0.6
O=C(/C=C/c1ccccc1)c1cc(Br)ccc(=O)c1O	·	·	·	-4.5	48	14	-4	48	17	-0.6
O=S(=O)(Cc1ccccc1Cl)N1CCCC1	12	3	0.5	-2.6	-2	-3	-1	-3	2	0.1
COC(=O)Nc1[nH]ncc1[N+](=O)[O-]	7	2	-3.0	·	·	-2	-4	-6	-13	0.1
COc1cccc(NC(=O)NCc2ccc(F)cc2)c1	3	-2	-0.3	2.2	-2	0	-25	1	-3	-1.4
COc1ccc(-c2cc(C(=O)Nc3cc(C)n(Cc4ccc(Cl)cc4)n3)no2)cc1OC	-12	-1	1.7	2.0	8	8	?	9	8	1.5
CCC(NC(=O)c1ccccc1NC(=O)C(C)(C)C)C(=O)N1CCCC1 (configuration not stated)	8	9	-1.2	-1.1	4	-1	3	-1	·	1.8
CC(C)Oc1ccc(C(=O)Nc2nc3ccccc3[nH]2)cc1	-6	4	1.0	-1.1	-6	-2	12	33	46	-7.9
CCCCCC(=O)Nc1nnn(CCC)n1	·	·	·	3.7	-7	6	-25	5	-6	0.8
COc1cccc(C(=O)NCCS(=O)(=O)N2CCC(C)CC2)c1	5	13	-0.1	-1.4	-25	-8	-6	-19	-3	-0.4
COc1ccc(C(=O)N2CCC(C(=O)Nc3ccccc3OC)CC2)cc1	·	·	·	1.4	-1	-7	0	3	4	0.3
Next part.
SMILES	Ecoli rRNA inh	Ecoli rRNA inh OD600	Ecoli rRNA inh RFP	LANA-H2A inh	ALR inh	B2AR ag	Calb FLC	T cruzi inh	Beta apoptosis	Bfl-1 A1 inh
Cc1ccc(CN2CCN(Cc3ccccn3)CC2CCO)cc1 (configuration not stated)	5	8	2.7	1.2	·	-8	-5	47	-4	0.1
CCCN1CCC(=O)N([C@H](CSc2ccc(OC)cc2)Cc2ccccc2)CC1	-32	-53	24	0.2	·	-3	0	0	10	0.3
Cc1cccc(C)c1NC(=O)COC(=O)c1ccccc1[N+](=O)[O-]	8	9	-0.2	-6.0	-5	4	-2	-19	-4	1.7
C=CCNC(=O)C1CCCN(S(=O)(=O)c2ccc(-n3cnnn3)cc2)C1 (configuration not stated)	7	19	-1.0	-2.6	1	5	-3	-10	3	-0.2
O=[N+]([O-])c1cnc2nc(-c3ccncc3)nn2c1O	29	13	-0.5	2.6	2	5	22	-3	9	-7.8
C/C=C/c1ccc(OCC(=O)OCc2csc(Nc3ccc(C)cc3)n2)c(OC)c1	6	4	5.0	-4.6	8	10	4	15	-10	0.9
C#CCn1c(=NC(=O)CN2C(=O)CCC2=O)sc2cc(S(N)(=O)=O)ccc21	·	·	·	0.3	16	-5	8	-17	-10	0.0
CC(C)c1ccc2[nH]c(O)c(N=NC(=O)c3cccc(S(=O)(=O)Nc4ccc(Cl)cc4)c3)c2c1	4	6	4.5	-0.1	-1	-5	-11	7	-2	13*
CCOC(=O)c1cnc2c(c(C)nn2-c2ccc(C)cc2)c1Cl	3	3	-2.9	·	·	-4	0	-15	·	·

High-throughput results from PubChem.
